UUG fidelity – modulators of yeast start codon fidelity, primary screen, whole organism, S. cerevisiae, single point, plate reader; AID 602363, 2012; 350,000 tested, 0.13% active; S. cerevisiae UUG-firefly luciferase reporter, luminescence/redox ratio; activity score, % at 18.7 µM;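 active = replicate mean at a twofold rise or more, about +100% in these data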;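 also: firefly luciferase made from a UUG start codon reports start codon fidelity; reporter light over untreated wells divided by growth signal over untreated wells; some hits fall short of that in this replicate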
eIF4H inh – human eIF4H binding inhibitors, primary screen, translation initiation inhibitor project, biochemical, uHTS, fluorescence polarization. eIF4H fluorescence polarization binding assay. inhibition, % at 35 µM. 290,000 tested, 0.94% active. AID 2012, 2009;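 active = 50% or more with normal probe brightness, or confirmed in later tests; inconclusive = above 50% with abnormal brightness, or retests that disagree; inactive = below 50% or failed in later tests; about a fifth of its hits are not listed in these tables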;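 also: calls also rest on retests at 20 µM and on dose response follow-up; 0% = protein and probe with vehicle and 100% = probe without protein; strong numbers were not always called active; many hits fall short of the cut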
Env fusion inh – inhibitors of HIV-1 Env-driven cell-cell fusion, primary screen, HeLa-JRFL effector, CEM21 target cells, luciferase; inhibition, % at 12.3 µM; 360,000 tested, 1.1% active;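 active = mean replicate inhibition score of at least 50 and every replicate individually at or above 50; inconclusive = only one of the two criteria met; inactive = mean below 50 and not all replicates reaching 50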;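 also: 0% = plate neutral controls and 100% = maraviroc near 300 nM; one replicate is shown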
MT1-MMP act inh – blockers of MT1-MMP proenzyme processing, primary screen, HT1080 RFP-PRO-GFP cells, GFP/RFP fluorescence | Matrix metalloproteinase-14 (Homo sapiens), P50281 | GFP/RFP ratio fluorescence, overnight; percent of plate control window, DMSO zero | GFP/RFP ratio change, % at 20 µM | 360,000 tested, 0.061% active | AID 651647, 2012;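 active = GFP/RFP ratio change of at least 30% with cell ATP level not reduced by more than half and red fluorescence within 50% of control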; also: strong numbers were not always called active
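Assay system: HT1080 RFP-PRO-GFP cells | Dosing: 20 µM single dose, 1% DMSO | Incubation: Cells overnight before dosing, compound overnight, 37 °C, 5% CO2 | Evaluation: GFP/RFP fluorescence ratio | Control set: DMSO-only wells and HT1080 RFP-L50D-GFP cell wells as references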
CSC inhib – cancer stem cell viability inhibitors, primary screen, luminescence | AID 2717, 2010 | inhibition, % at 7.5 µM | cancer stem cell-like cells viability | 300,000 tested, 1.1% active;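 active = mean at 75% or more and at least half the replicates too; inconclusive = mean and replicates disagree; tested in HMLE shEcad cells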;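 also: 0% = median of negative and 100% = median of positive control wells; the first replicate is given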
PABP FP inh – PABP poly(A) RNA binding inhibitors, primary screen, biochemical, fluorescence polarization, uHTS; Polyadenylate-binding protein 1 (Homo sapiens), P11940; inhibition, % at 35 µM; 290,000 tested, 1% active; AID 2014, 2009;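 active = 50% or more with normal probe brightness, or confirmed in later tests; inconclusive = above 50% with abnormal brightness, or retests that disagree; inactive = below 50% or failed in later tests; about a fifth of its hits are not listed in these tables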;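 also: calls also rest on retests at 20 µM and on dose response follow-up; controls were probe without protein and protein plus probe with vehicle; some compounds called inactive have numbers as strong as hits; many hits fall short of the cut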
Target sequence (P11940 whole entry, looked up): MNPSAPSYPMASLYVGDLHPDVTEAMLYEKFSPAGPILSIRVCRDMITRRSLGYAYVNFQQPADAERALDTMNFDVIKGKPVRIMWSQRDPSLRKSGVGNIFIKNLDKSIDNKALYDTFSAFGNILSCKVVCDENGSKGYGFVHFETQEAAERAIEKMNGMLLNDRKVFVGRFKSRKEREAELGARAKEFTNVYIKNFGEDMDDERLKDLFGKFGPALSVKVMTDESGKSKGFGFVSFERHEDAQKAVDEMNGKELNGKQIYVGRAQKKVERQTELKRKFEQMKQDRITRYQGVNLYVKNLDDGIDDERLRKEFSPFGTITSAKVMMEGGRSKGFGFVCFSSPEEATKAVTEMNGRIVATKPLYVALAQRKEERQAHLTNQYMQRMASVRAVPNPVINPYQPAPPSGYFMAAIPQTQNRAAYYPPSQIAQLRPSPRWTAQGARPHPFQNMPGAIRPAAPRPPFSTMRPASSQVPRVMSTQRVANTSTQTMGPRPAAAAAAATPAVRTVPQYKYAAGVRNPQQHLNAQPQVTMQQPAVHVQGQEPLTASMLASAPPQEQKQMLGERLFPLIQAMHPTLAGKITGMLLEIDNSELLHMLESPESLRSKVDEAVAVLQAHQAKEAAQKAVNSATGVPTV
Rce1 inhib – yeast Rce1p protease inhibitors, primary screen, biochemical, fluorescence, cell-free homogeneous | AID 2563, 2010 | 290,000 tested, 0.27% active | yeast membranes, quenched prenylated peptide cleavage fluorescence | calls only | CAAX prenyl protease 2 (Saccharomyces cerevisiae (strain ATCC 204508 / S288c)), Q03530;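 active = fall in fluorescence gain of 50% or more versus controls, with final raw signal at or below 3038400; inconclusive = same 50% fall but final raw signal above 3038400; inactive = fall in fluorescence gain under 50%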;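 also: plate controls were neutral control wells for no effect and wells lacking membranes for full effect; tested at 10 µM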
Target sequence (Q03530 whole entry, looked up): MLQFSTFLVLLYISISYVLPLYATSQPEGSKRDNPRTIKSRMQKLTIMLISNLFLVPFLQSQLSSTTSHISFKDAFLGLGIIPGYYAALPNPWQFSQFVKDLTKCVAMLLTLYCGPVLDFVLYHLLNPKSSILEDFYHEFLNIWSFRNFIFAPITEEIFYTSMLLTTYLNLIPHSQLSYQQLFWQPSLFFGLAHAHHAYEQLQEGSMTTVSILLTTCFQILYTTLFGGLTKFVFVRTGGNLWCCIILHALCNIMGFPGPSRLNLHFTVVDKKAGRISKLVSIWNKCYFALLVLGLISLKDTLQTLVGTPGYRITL
MT1-MMP act inh RFP – recorded beside MT1-MMP act inh, whose call it bears; RFP signal change, %; measured here: RFP expression control read;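 0 = vehicle wells; hits needed this value within 50% of zero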
* marks the source's active call; other numbers are inactive results; i = inactive; ? = inconclusive; . = not tested or not shown. Not all compounds are listed; the hit share may differ from the screen's.

structure	UUG fidelity	eIF4H inh	Env fusion inh	MT1-MMP act inh	MT1-MMP act inh RFP	CSC inhib	PABP FP inh	Rce1 inhib
O=C(Nc1cccc(S(=O)(=O)NC2=NCCC2)c1)c1cc(-c2ccccn2)nc2ccccc12	-1	-9	-21	4	5	-16	10	i
O=C(c1ccccc1-c1ncc[nH]1)N1CCCC(Nc2ccc(F)cc2)C1 (centres undefined)	-13	-2	3	-1	4	1	2	.
Cc1cc(OC(C)C(=O)NCc2cccnc2)c2c(C)c(C)c(=O)oc2c1 (centres undefined)	-11	-11	2	-3	2	0	-6	i
O=c1[nH]c(C2CCN(S(=O)(=O)c3cccc([N+](=O)[O-])c3)CC2)nc2c1nnn2Cc1ccccc1	-4	-4	1	3	1	.	16	i
CN(Cc1cccc(Cl)c1Cl)C(=O)c1cccc(S(=O)(=O)N2CCN(Cc3ccccc3)CC2)c1	12	-11	49	-4	-28	8	-5	i
CC(=O)c1ccc(S(=O)(=O)NCCOc2ccccc2)cc1	2	.	-18	3	3	.	.	.
COc1ccc(NC(=S)NC(=O)/C=C/c2ccco2)c(OC)c1	-16	8	-4	4	5	-6	10	i
COc1ccc(OC)c(N=Cc2c(O)c3ccccc3oc2=O)c1	-9	?	8	-10	-3	-13	?	i
CCCCn1c(CCC(=O)O)nc2cc(S(=O)(=O)N(CC)CC)ccc21	-10	48	-32	28	27	-13	21	i
COc1ccccc1CNC(=O)COc1ccccc1C(=O)c1cnn(-c2ccccc2)c1	-12	.	-68	-7	-3	8	.	.
CCOC(=O)C1CCN(S(=O)(=O)c2ccc(OCC(=O)OC)cc2)CC1	1	-1	-15	-1	-1	7	-1	i
O=C(N/N=C/c1cc([N+](=O)[O-])ccc1O)/C(=C\c1cccs1)NC(=O)c1ccccc1	.	2	12	-10	-6	21	-6	i
CSc1ccccc1OCc1cc(C(=O)NCC(C)Oc2cccnc2)no1 (centres undefined)	-19	.	26	1	-5	.	.	.
N/C(=N\OC(=O)c1ccc2ccccc2c1)c1ccccn1	-76	-9	8	-5	-7	3	2	i
CCN(CC(=O)N1CCOCC1)S(=O)(=O)c1ccccc1	-12	-4	7	0	2	-7	5	i
Cc1cccc(/C=N/NC(=O)c2cc(Br)ccc2O)n1	-19	19	-15	3	-1	4	13	i
O=C(O)c1cccc(-n2c(O)c(C=C3N=c4ccccc4=N3)sc2=S)c1	-13	2	19	-6	6	6	-7	i
COC(=O)c1ccc(C2/C(=C(/O)c3ccc(Cl)cc3)C(=O)C(=O)N2C2CCS(=O)(=O)C2)cc1 (centres undefined)	.	-9	7	0	4	2	-7	i
NN1C(=O)/C(=C2/Sc3ccccc3N2CCCS(=O)(=O)O)SC1=S	-22	8	10	-14	5	-3	27	i
CNc1ccccc1NC(=O)CCn1c(=S)oc2ccccc21	1	-1	15	-4	-2	-12	-2	i

structure	UUG fidelity	eIF4H inh	Env fusion inh	MT1-MMP act inh	MT1-MMP act inh RFP	CSC inhib	PABP FP inh	Rce1 inhib
CN(Cc1ccco1)C(=O)CCc1nc2sc3c(c2c(=O)[nH]1)CCCC3	-5	-2	39	-6	0	22	0	i
CCOC(=O)N1CCN(C(=O)CCNS(=O)(=O)c2ccc(C)c(C)c2)CC1	2	.	.	-6	-4	-8	.	.
COCc1nnc(NC(=O)CCCOc2ccccc2)s1	-15	6	-94	8	4	-12	1	i
Cc1ccc2c(Cl)c(C(=O)NCCCn3ccnc3)sc2c1	-18	2	-2	3	-3	42	0	i
COc1cc(COCC(O)CN2CCN(Cc3ccc4c(c3)OCO4)CC2)cc(OC)c1OC (centres undefined)	.	5	-11	0	0	-3	-2	.
Cc1c2ccccc2cc(Cc2ccccc2)[n+]1C	-7	-9	8	-4	-6	-6	22	i
Cc1ccc(-c2c3c(nc4sc(C(N)=O)c(N)c24)CCC3)cc1	.	-4	.	-2	-4	-8	-7	i
CCN(CC)C(=O)CSC1=Nc2ccccc2C2=NC(c3ccccc3)C(=O)N12 (centres undefined)	2	4	-37	0	0	-12	4	i
CCc1ccc(C(=O)C(C)OC(=O)CN2C(=O)NC3(CCCC3)C2=O)cc1 (centres undefined)	-8	.	9	5	1	.	.	.
COc1ccccc1NC(=S)NC12CN3CN(CN(C3)C1)C2	.	-4	-7	0	4	-21	0	i
O=C(O)c1ccc(NC(=O)C2(c3ccccc3)CCOCC2)cc1	4	-11	.	-3	3	.	6	i
CCOC(=O)C1CCCN(c2nc3c(C)cccn3c(=O)c2/C=C(\C#N)C(=O)NCc2ccco2)C1 (centres undefined)	.	4	4	0	-1	-6	2	i
CCn1c(Cc2cccc3ccccc23)nnc1SCC(=O)Nc1nccs1	-16	-5	.	4	-7	-2	-8	i
O=C(Nc1cccc(-n2cnnn2)c1)c1ccncc1	-17	-13	2	-1	-1	5	-1	i
Cc1cccc(C)c1N1CCc2cn[nH]c21	-24	-9	.	-4	11	-10	-6	i
COc1ccc(C2SCC(=O)N2C)cc1 (centres undefined)	-18	3	.	-4	4	-12	-3	i
CCOC(=O)Nc1ccc(S(=O)(=O)NCCCN2CCOCC2)cc1	-13	3	26	5	0	-14	-2	i
CC1=C(C(=O)OCC(C)C)C(c2ccsc2)NC(=O)N1 (centres undefined)	-15	-2	-3	1	-3	7	9	i
COC(=O)C[C@H]1c2cc(F)cc(F)c2S(=O)(=O)N1C1CCN(Cc2ccccc2)CC1	10	.	14	2	-3	6	.	i
COc1ccc(NC(=O)CNC(=O)c2nn(-c3ccc(OC)cc3OC)c(=O)c3ccccc23)c(OC)c1	.	-11	16	-1	-3	-42	-2	i

Random excerpt: 3 compounds from above, in no set order.
structure	UUG fidelity	eIF4H inh	Env fusion inh	MT1-MMP act inh	MT1-MMP act inh RFP	CSC inhib	PABP FP inh	Rce1 inhib
COCc1nnc(NC(=O)CCCOc2ccccc2)s1	-15	6	-94	8	4	-12	1	i
Cc1ccc2c(Cl)c(C(=O)NCCCn3ccnc3)sc2c1	-18	2	-2	3	-3	42	0	i
CCN(CC)C(=O)CSC1=Nc2ccccc2C2=NC(c3ccccc3)C(=O)N12 (centres undefined)	2	4	-37	0	0	-12	4	i

Next entries:
structure	UUG fidelity	eIF4H inh	Env fusion inh	MT1-MMP act inh	MT1-MMP act inh RFP	CSC inhib	PABP FP inh	Rce1 inhib
COc1ccc(OC)c2c1C(=O)CC2C (centres undefined)	-18	.	-3	4	0	.	.	.
COc1ccc(/C=N/NC2=NS(=O)(=O)c3ccccc32)cc1OC	-26	-10	1	5	11	-1	-2	i
CCO[C@@H]1OC(C(N)=O)=C[C@H](c2ccc(C(F)(F)F)cc2)[C@H]1CCCO	14	2	7	1	4	-25	4	i
O=c1c2ccccc2c(=O)n(-c2ccccc2)n1CCCCBr	-19	.	0	-3	-3	13	.	i
Cc1cccc(C)c1-n1nnnc1-c1cnccc1C(F)(F)F	2	-10	17	6	5	-16	-6	i
CCCOc1ccc(C(=O)Nc2cc(-c3nn4c(C)nnc4s3)ccc2C)cc1	-4	-2	-7	1	1	7	-7	i
CCNC(=S)N(CCCN(CC)CC)Cc1cc2cc3c(cc2[nH]c1=O)OCO3	-18	-5	1	-4	0	-15	-8	i
O=C(/C=C/c1ccc2c(c1)OCO2)Nc1nncs1	16	5	-19	-3	-1	57	-9	i
CCc1nnc(NC(=O)c2ccc(N3C(=O)CCC3=O)cc2)s1	-8	-17	-15	-2	5	-8	-8	i
COC(=O)c1cc(C(=O)OC)n(Cc2ccc(F)cc2)c1C	-2	14	3	0	0	-3	8	i
O=C(OCc1nc2ccccc2s1)c1cccs1	-9	-8	-228	16	1	-4	-6	i
CC(=O)N1CCOc2ccc(S(=O)(=O)N3CCN(c4cccc(C(F)(F)F)c4)CC3)cc21	-3	-8	0	7	-9	13	-10	i
CCc1ccccc1NC(=O)C1CCCN1C(=O)NCc1ccccc1 (centres undefined)	-15	6	-5	0	5	-18	-2	i
CCCCCCC(C)OC(=O)c1ccccc1C(=O)O (centres undefined)	-20	-4	20	2	-3	-3	-2	i
COc1ccc(C(C(=O)NC2CCCC2)N(Cc2cccnc2)C(=O)c2snc(C(N)=O)c2N)cc1 (centres undefined)	-13	-7	10	0	1	.	-7	i
COc1ccc(NC(=O)c2cccnc2N2CCCCC2)cc1	-11	-1	.	-3	1	-10	-4	i
Cn1nnnc1SCC(=O)N1CCCCC1	-20	8	-18	4	4	-13	-2	i
CCc1ccc(N2C(=O)CC(N3CCN(c4ccccn4)CC3)C2=O)cc1 (centres undefined)	-1	-12	-15	4	3	-19	5	i
COc1ccc(-n2c(-c3cc(-c4ccccc4)sc3N)n[nH]c2=S)cc1	.	8	-4	2	-3	-5	-4	i

Gathered by group, those above with a nitro group on carbon (2)
structure	UUG fidelity	eIF4H inh	Env fusion inh	MT1-MMP act inh	MT1-MMP act inh RFP	CSC inhib	PABP FP inh	Rce1 inhib
O=c1[nH]c(C2CCN(S(=O)(=O)c3cccc([N+](=O)[O-])c3)CC2)nc2c1nnn2Cc1ccccc1	-4	-4	1	3	1	.	16	i
O=C(N/N=C/c1cc([N+](=O)[O-])ccc1O)/C(=C\c1cccs1)NC(=O)c1ccccc1	.	2	12	-10	-6	21	-6	i

Screening data deposited in PubChem BioAssay by several laboratories.
